Mtb growth: Mycobacterium tuberculosis H37Rv growth inhibition, cell based, confirmatory dose response (AID 1949); most inactive calls were filed without a number and no value below 0 was filed; inhibition, % at 10 µg/mL, or IC50 in µg/mL where a hit was titrated; 1.6% of 100,000 active;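 active means confirmed in a dose series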;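 further: bacteria grown 7 days with compound before Alamar blue readout; 0% = untreated bacteria and 100% = reference antibiotic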
* hit, by the source's call; i = inactive. Some of the compounds tested. The share of hits here may be higher or lower than overall.

Preview (19 entries):
SMILES | Mtb growth
O=C(NCCN1CCN(C(=O)Nc2ccccc2)CC1)Nc1ccccc1 | i
CC1CN(C(=O)C23CC4CC(CC(C4)C2)C3)C(C)CN1C(=O)C12CC3CC(CC(C3)C1)C2 (centres undefined) | i
CCC(=O)Nc1ccc(Cl)c(NC(=S)NC(=O)c2cccc(I)c2)c1 | i
CCCCC(=O)Oc1ccc(-c2ccccc2)cc1 | i
Cc1nn(C)c(C)c1NS(=O)(=O)c1ccccc1 | 3%
Cc1c(NC(=O)CCC2CCCCC2)cccc1[N+](=O)[O-] | i
CC(=O)Oc1ccc(-c2nc(-c3ccccc3)no2)cc1 | i
Cc1ccc(N(CCCCN2C(=O)c3ccccc3C2=O)C(=O)c2cccc([N+](=O)[O-])c2)cc1 | i
O=c1[nH]c(CCc2ccccc2)nc2sc3c(c12)CCCC3 | i
O=S(=O)(Nc1ccc(O)c(Sc2ncn[nH]2)c1)c1cccc2ccccc12 | 1%
C=CCNCCCCOc1ccc(OCC)cc1 | i
CN1CCN(CCCCOc2ccc(OCc3ccccc3)cc2)CC1 | i
C=CCc1cccc(OC)c1OCCCN1CCN(C)CC1 | i
O=C(O)CCc1ccc(-c2ccccc2)o1 | i
NC(=O)C1CCCN(C(=O)c2ccc(Cl)cc2)C1 (centres undefined) | i
COc1cccc2cc(-c3csc(Nc4ccccc4C(F)(F)F)n3)c(=O)oc12 | i
CCOc1ccccc1C1NC(=O)N(Cc2ccccc2)C(C)=C1C(=O)OC (centres undefined) | 4%
N#C/C(=C/c1cccs1)c1cccc([N+](=O)[O-])c1 | i
c1ccc(CCc2ccccc2-c2nc(-c3ccncc3)no2)cc1 | 8.8µg/mL*

Main list (from the top)
SMILES | Mtb growth
O=C(NCCN1CCN(C(=O)Nc2ccccc2)CC1)Nc1ccccc1 | i
CC1CN(C(=O)C23CC4CC(CC(C4)C2)C3)C(C)CN1C(=O)C12CC3CC(CC(C3)C1)C2 (centres undefined) | i
CCC(=O)Nc1ccc(Cl)c(NC(=S)NC(=O)c2cccc(I)c2)c1 | i
CCCCC(=O)Oc1ccc(-c2ccccc2)cc1 | i
Cc1nn(C)c(C)c1NS(=O)(=O)c1ccccc1 | 3%
Cc1c(NC(=O)CCC2CCCCC2)cccc1[N+](=O)[O-] | i
CC(=O)Oc1ccc(-c2nc(-c3ccccc3)no2)cc1 | i
Cc1ccc(N(CCCCN2C(=O)c3ccccc3C2=O)C(=O)c2cccc([N+](=O)[O-])c2)cc1 | i
O=c1[nH]c(CCc2ccccc2)nc2sc3c(c12)CCCC3 | i
O=S(=O)(Nc1ccc(O)c(Sc2ncn[nH]2)c1)c1cccc2ccccc12 | 1%
C=CCNCCCCOc1ccc(OCC)cc1 | i
CN1CCN(CCCCOc2ccc(OCc3ccccc3)cc2)CC1 | i
C=CCc1cccc(OC)c1OCCCN1CCN(C)CC1 | i
O=C(O)CCc1ccc(-c2ccccc2)o1 | i
NC(=O)C1CCCN(C(=O)c2ccc(Cl)cc2)C1 (centres undefined) | i
COc1cccc2cc(-c3csc(Nc4ccccc4C(F)(F)F)n3)c(=O)oc12 | i
CCOc1ccccc1C1NC(=O)N(Cc2ccccc2)C(C)=C1C(=O)OC (centres undefined) | 4%
N#C/C(=C/c1cccs1)c1cccc([N+](=O)[O-])c1 | i
c1ccc(CCc2ccccc2-c2nc(-c3ccncc3)no2)cc1 | 8.8µg/mL*
CC(=O)Nc1ccc(NC(=O)c2ccccc2-c2nc(-c3ccccc3Cl)no2)cc1 | i
O=Cc1cccn1-c1cccc(C(=O)O)c1 | i
COc1ccc(C(=O)O)cc1NC(=S)NC(=O)c1ccccc1F | i
CCOC(=O)c1c(NC(=O)c2ccc(S(=O)(=O)N3CCCCCC3)cc2)sc(C(C)=O)c1C | i
Cc1ccc(-n2nnnc2SCc2cccc(F)c2)cc1 | i
CCC(Sc1n[nH]c(N)n1)C(=O)Nc1ccccc1C#N (centres undefined) | i
COC(=O)c1c(NC(=S)N2c3ccc(F)cc3CCC2C)sc2c1CCC2 (centres undefined) | i
CCOc1ccc2c(=O)c(-c3ccccc3OC)c(C)oc2c1 | 1%
CCc1ccc(-n2c(C)nnc2SCC(=O)Nc2c(C)cc(Br)cc2CC)cc1 | i
Cc1ccccc1C(=O)Nc1ccc2c(C)cc(=O)oc2c1 | i
CN(C)S(=O)(=O)c1cc(C(=O)NCCc2c[nH]c3ccccc23)c(Cl)cc1Cl | 1%
O=C(Nc1ccccc1C(=O)NCCc1ccccc1)c1ccc(Cl)cc1Cl | 0%
COc1cc(C2CC2)c([N+](=O)[O-])cc1OC | i
CC(C)COc1ccc(-c2nn(-c3ccccc3)cc2C(=O)N2CCOCC2)cc1 | 5%
CN1CCN(NC(=S)NC2CCCCC2)CC1 | i
C#CCSc1nc(N)c2c3c(sc2n1)CCC3 | i
COc1ccc(-c2cc(C(=O)Nc3ccc([N+](=O)[O-])cc3C)c3ccccc3n2)cc1 | i
C=CCSc1nc2sc3c(c2c(=O)n1-c1ccccc1)C(C)CCC3 (centres undefined) | i
COc1ccc(CCNC(=S)Nc2ccc(S(N)(=O)=O)cc2)cc1 | i
CCOC(=O)c1c(NC(=S)NCCCN2CCCC2=O)sc(C)c1-c1ccccc1 | i
COc1ccc(-c2nc3ccccc3c(=O)n2-c2ccc(F)cc2)cc1 | i
O=S(=O)(Nc1ccc(Cc2ccncc2)cc1)c1ccc(Br)s1 | i
COc1ccc(S(=O)(=O)N(C)CC(=O)O)cc1OC | i
O=C(NCCc1nc2ccccc2[nH]1)c1ccc(-c2ccccc2)cc1 | i
NC(=O)CSc1nnc(-c2ccco2)n1-c1ccccc1 | i
OCCOCCNc1ncnc2ccc(I)cc12 | i
CC1CN(CCOc2ccc(Cl)c3ccccc23)CC(C)O1 (centres undefined) | i
COCCNC(=O)C(=O)N1CCN(c2ccc(OC)cc2)CC1 | i
Cc1ccc(S(=O)(=O)N(CC(=O)Nc2ccc(F)c(Cl)c2)c2ccccc2)cc1 | i
Cc1cc(O)c(C(C)C)cc1NC(=O)c1ccc([N+](=O)[O-])cc1 | i
N#Cc1c(NC(=O)C2CC(Cl)=CCC2C(=O)O)sc2c1CCCCC2 (centres undefined) | i
Cc1ccc(S(=O)(=O)N(CC(=O)Nc2cccc(N(C)S(C)(=O)=O)c2)c2ccc(C)c(Cl)c2)cc1 | i
O=C(NCc1cccnc1)C1CC(c2ccccc2O)=NO1 (centres undefined) | i
COc1ccc(C(=O)CCC(=O)Nc2cccc3ccccc23)cc1OC | i
O=C(NCCc1c[nH]c2ccccc12)c1ccc(COc2c(F)c(F)cc(F)c2F)o1 | 4%
Cc1ccc(C)c(Cn2cnc3ccccc32)c1 | 20%
C=CCn1c(SCC(=O)Nc2nc(-c3ccccc3)c(C)s2)nnc1C(NC(=O)c1ccccc1)C(C)C (centres undefined) | i
CCOC(=O)CC1C(=O)NC2CCCCC2N1C(=O)Nc1ccc(Cl)cc1 (centres undefined) | i
CC(C)c1ccc(NC(=O)CSc2nnnn2-c2ccc(C(N)=O)cc2)cc1 | i
Cc1cc(C)nc(NS(=O)(=O)c2ccc(NC(=O)COc3cccc(C)c3C)cc2)n1 | 2%
C=CCc1ccc(OCCN2CCNCC2)c(OC)c1 | i

(list continues)
SMILES | Mtb growth
COC(=O)c1c(NC(=O)COc2ccc(Cl)cc2)sc2c1CCC2 | 2%
CCOC(=O)c1ccc(NCC(=O)Nc2ccc(F)cc2)cc1 | i
CC(C)OC(=O)c1ccc(-n2cccn2)cc1 | i
CCOC(=O)c1ccc(NC(=O)Nc2ccn(C)n2)cc1 | 0%
Cc1cccc(CN2CCCC(C(=O)N3CCCCCC3)C2)c1 (centres undefined) | i
O=C(Nc1ccc(C(F)(F)F)cc1)c1ccc(CN2CCOCC2)cc1 | 1%
CCC(=O)N(CCCNC(=O)C(F)(F)F)c1ccc([N+](=O)[O-])cc1 | i
COc1ccc(NC(=O)Nc2ccc3nc(C)sc3c2)cc1 | 1%
COc1cccc(CN2CCN(C3CCCC(C)C3)CC2)c1 (centres undefined) | i
CCOc1cc(C(=O)Nc2nc3ccc(NC(C)=O)cc3s2)cc(OCC)c1OCC | i
Cc1cc(C)cc(NC(=S)N2CCN(C)CC2)c1 | 0%
Nc1ccc(NC(=O)C2(c3ccccc3)CCCC2)cc1 | i
Cc1cc2[nH]c(=S)n(Cc3ccccc3Cl)c2cc1C | 3%
COc1ccc(C(=O)Nc2ccc(S(=O)(=O)Nc3nccs3)cc2)cc1I | 15%
COc1cccc(OC)c1C(=O)Nc1ccc(C(=O)N2CCCCC2)cc1 | i
NC(=O)COc1ccc(Br)cc1CNCCCN1CCOCC1 | i
O=C(Nc1cc2c(cc1C(=O)c1ccccc1)OCCO2)c1ccccc1F | i
c1ccc(SCCCN2CCNCC2)cc1 | 1%
CCCc1ccc(S(=O)(=O)NNC(=O)NC23CC4CC(CC(C4)C2)C3)cc1 | 2%
CCOc1ccccc1OCCOCCNC(C)CC (centres undefined) | i
Cc1ccc(NC(=O)c2ccc(Cl)c(NC(=O)c3cccs3)c2)cc1 | 14%
CC(C)C(=O)Nc1cccc(NC(=O)c2ccccc2I)c1 | i
CCOC(=O)c1ccc(NC(=S)N2CCN(C(=O)C3CCCO3)CC2)cc1 (centres undefined) | i
CCc1cccc(NC(=O)CCCC(=O)O)c1 | i
COc1ccc(S(=O)(=O)N(CC(=O)NCc2cccnc2)c2ccc(C)cc2)cc1Br | i
Cc1ccc2oc(C(=O)Nc3ccc(S(=O)(=O)N4CCOCC4)cc3)c(C)c2c1 | i
O=S(=O)(NC(=NCc1ccccc1)C(F)(F)F)c1ccccc1 | i
CC(C)(C)SCCNS(=O)(=O)c1ccc(Br)s1 | i
COc1cc(CN(C(=O)c2ccc(C)c(Cl)c2)C2CCCCC2)ccc1OCC(N)=O | i
N#C/C(=C\c1cc2c(cc1[N+](=O)[O-])OCO2)c1ccc(F)cc1 | i
O=C(Cn1c(=O)oc2ccccc21)Nc1nc2c(s1)CCCC2 | i
CC(=O)c1cccc(NC(=O)C(=O)NC2CC2)c1 | i
COc1ccc(N(CC(=O)Nc2ccccc2C(N)=O)S(=O)(=O)c2ccc(C)c([N+](=O)[O-])c2)cc1 | 4%
COc1ccc(/C=C/c2nc(-c3ccccc3O)n(-c3ccccc3)n2)cc1OC | i
COc1ccc(Cl)cc1-n1cnc2sc(C)c(C)c2c1=O | i
COc1ccc(OC)c(NC(=O)C(C)Oc2ccc(C)c(C)c2)c1 (centres undefined) | i
Cc1nn2c3cc(N4CCNCC4)ccc3nc2c2ccccc12 | i
Cc1ccc(S(=O)(=O)N(C)CC(=O)NC2CCCCCC2)cc1 | i
CCCOc1ccc2c(C)c(CCC(=O)OCC)c(=O)oc2c1C | i
CCOC(=O)N1CCN(C(=S)Nc2ccc(Oc3ccccc3)cc2)CC1 | i
O=C(NCCNc1ccc(C(F)(F)F)cc1[N+](=O)[O-])c1ccc(F)cc1 | i
COc1ccccc1-c1c(C)oc2cc(OCC(N)=O)ccc2c1=O | i
Cc1ccc(-c2[nH]c(-c3ccc(C(=O)O)cc3)nc2-c2ccccc2)cc1 | i
CCCCOc1ccc(S(=O)(=O)N2CCN(c3ccc(Cl)c(Cl)c3)CC2)cc1 | i
COc1ccc(C(C)C)cc1S(=O)(=O)N1CCCc2ccccc21 | i
COc1ccccc1OCCCOc1cccc2cccnc12 | 1%
Cc1cccc(NS(=O)(=O)c2cc([N+](=O)[O-])ccc2C)n1 | i
CCc1ccc(OCC(=O)Nc2ccc(S(=O)(=O)N(CC)CC)cc2)c(Br)c1 | i
Cn1c(SCC(=O)Nc2nc(-c3ccccc3)cs2)nnc1-c1ccc(Cl)cc1 | 0%
CC(=O)c1cccc(NS(=O)(=O)c2ccccc2)c1 | i
CCOc1cc(C(=O)Nc2ccc(NC(=O)Cc3ccccc3)cc2)cc(OCC)c1OCC | i
COc1ccc(-c2nc3c(=O)n(C)c(=O)[nH]c3n2C)cc1 | i
CCOC(=O)CC(=O)CSCC(=O)Nc1ccc(C)cc1 | i
COC(=O)c1ccccc1NC(=O)CN(c1ccccc1F)S(C)(=O)=O | 3%
CCN(CC)C(=O)c1sc(NC(=S)Nc2cc(OCC(F)(F)C(F)F)cc([N+](=O)[O-])c2)c(C(=O)OC)c1C | i
COc1ccc(OC(C)C(=O)NC(C)(C)C)cc1 (centres undefined) | i
COC(=O)C1=CN(C(C)C)C=C(C(=O)OC)C1c1ccc(OC)c(Br)c1 | i
CCCCc1ccc(NC(=O)c2ccc(OCC(=O)Nc3ccccc3F)cc2)cc1 | i
CC(NC(=O)c1ccc(Cl)cc1)c1ccccc1 (centres undefined) | i
CCC(C)(C)c1ccc(OCCOCCN2CCNCC2)c(Cl)c1 | 4%

The final two records of the section above come first, to join the parts.
SMILES | Mtb growth
CC(NC(=O)c1ccc(Cl)cc1)c1ccccc1 (centres undefined) | i
CCC(C)(C)c1ccc(OCCOCCN2CCNCC2)c(Cl)c1 | 4%
Cc1cc(=O)oc2cc(OCC#N)ccc12 | i
Cc1cc(=O)[nH]c(/N=C(\N)Nc2ccccc2)n1 | i
COc1ccc(OC)c(N(CC(N)=O)S(=O)(=O)c2ccccc2)c1 | i
CCc1cc(OCCCCN2CC(C)OC(C)C2)ccc1Cl (centres undefined) | i
Cc1ccc(C(=O)Nc2ccc(S(=O)(=O)N3CCC(C)CC3)cc2)cc1Br | 4%
CC(C)(C)C(=O)Nc1ccccc1C(=O)Nc1cccc(C(F)(F)F)c1 | 2%
CC(C)c1ccc(OCc2nnc(N)s2)cc1 | i
CC(=O)NC(NC(C)=O)c1cccc(Oc2ccccc2)c1 | i
CCOc1ccccc1N1CCN(C(=O)C2CCN(Cc3ccc(OC)cc3OC)CC2)CC1 | i
COC(=O)c1c(-c2ccc(C)cc2)csc1NC(=O)c1cccnc1 | i
CCCn1c(-c2ccc(Cl)cc2)nc2c(=O)n(C)c(=O)[nH]c21 | i
C=CCn1c(=S)[nH]c2cc(C(=O)OC)ccc2c1=O | i
COc1ccc(Nc2ncnc(N)c2[N+](=O)[O-])c(OC)c1 | 7%
O=S(=O)(Nc1ccc(Br)cc1)c1ccccc1F | i
COc1cc(OC)cc(C(=O)NC(=S)Nc2ccc(Cl)cc2)c1 | i
Cc1cc(C)cc(N(CC(=O)Nc2ccc(F)cc2F)S(C)(=O)=O)c1 | i
COc1ccc(CCNc2nc(-c3ccc([N+](=O)[O-])cc3)cs2)cc1OC | i
Cc1ccc(-c2nc(S(=O)(=O)c3ccccc3)c(SCc3ccc([N+](=O)[O-])cc3)o2)cc1 | 1%
